GIV-Gai inh: blocks GIV peptide binding to rat Galpha-i3; P08753; Galpha-i3/FITC-GIV peptide fluorescence polarization, 90 min; active compounds read low; scaled: aluminum fluoride 0%, vehicle 100%; percent of control (FP), % (test concentration not listed); hit rate 0.42% among 210,000; AID 1224905;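 active means replicate mean at 85% of control or lower, very high polarization wells dropped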;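 further: lower values mean more displacement of the GIV peptide from Galpha-i3; wells of about 15 µL received 100 nL stock; the first replicate is given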
Target sequence (P08753 whole entry, looked up): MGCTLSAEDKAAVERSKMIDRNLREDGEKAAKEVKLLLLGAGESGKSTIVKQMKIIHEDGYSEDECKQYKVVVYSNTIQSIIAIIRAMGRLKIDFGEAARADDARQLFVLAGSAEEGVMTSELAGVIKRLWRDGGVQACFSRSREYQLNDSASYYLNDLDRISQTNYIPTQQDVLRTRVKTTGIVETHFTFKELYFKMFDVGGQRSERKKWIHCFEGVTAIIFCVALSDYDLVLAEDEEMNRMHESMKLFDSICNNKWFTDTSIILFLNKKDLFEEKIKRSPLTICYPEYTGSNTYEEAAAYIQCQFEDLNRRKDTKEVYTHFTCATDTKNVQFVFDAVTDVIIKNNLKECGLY
An asterisk follows results filed as active. A portion of the library; the hit share may differ from the screen's.

SMILES	GIV-Gai inh
COC(=O)C1CCN(c2ncnc3c2nnn3C)CC1	104
COc1ccccc1C(=O)N1c2ccccc2Sc2ccccc21	100
Cc1ccc(C(C)NC(=O)c2ccc(-c3ccc(F)cc3)nc2)cc1 (configuration not stated)	103
CN1C(=O)C2(CCN(S(=O)(=O)c3ccc4c(c3)oc(=O)n4C)C2)c2ccccc21 (configuration not stated)	103
Cc1nc(N2CCCCC2C)c2c(C)c(C(=O)Nc3ccc4c(c3)OCO4)sc2n1 (configuration not stated)	107
C=CCn1c(=O)c(N2CCC(NC(=O)NC)CC2)nc2cccnc21	104
O=C(Nc1ccc2nc(SCC(=O)N3CCOCC3)sc2c1)c1ccc(Cl)c(Cl)c1	105
CN(Cc1ccsc1)C(=O)NC(C)(C)C	104
Cc1nn2c(S(=O)(=O)N3CCC4(CC3)OCCO4)c(C)nc2s1	99
O=S(=O)(NCc1nc2cccnc2n1C1CC1)c1ccc2c(c1)CCCC2	102
NS(=O)(=O)c1ccc(CCNc2ncnc3c2cnn3-c2ccccc2)cc1	107
CCOC(=O)c1[nH]c(C)c(CCC(=O)NC(C)(C)C)c1C	105
CCCC(CCC)C(=O)Nc1ccc2c(c1)Nc1ccccc1CC2	114
CC(C)N1CCN(C(=O)C2CC(=O)N(c3ccc4c(c3)CCN4C(=O)C3CC3)C2)CC1 (configuration not stated)	98
CCOc1ccccc1-n1c(=S)sc2c(=O)n(-c3cc(OC)ccc3OC)c(=S)[nH]c21	100
CC1CC(C)CN(S(=O)(=O)c2ccc(F)c(C(=O)Nc3c(F)cc(F)cc3Br)c2)C1 (configuration not stated)	108
CCOC(=O)c1c(S(=O)(=O)N2CCCC(C(=O)Nc3cccc(C)n3)C2)c(C)n(CC)c1C (configuration not stated)	100
O=C(CS(=O)Cc1cnn(-c2ccccc2)c1-n1cccc1)N1CCC(N2CCCCC2)CC1 (configuration not stated)	101
Cc1cc(N)nn1C(=O)CSc1nc2cc(C(=O)NCC3CCCO3)ccc2c(=O)n1Cc1ccco1 (configuration not stated)	106
CC1=C(C(=O)Nc2ccccc2F)C(c2ccccn2)C2=C(CC(C)(C)CC2=O)N1 (configuration not stated)	99
CCN(c1cccc(C)c1)S(=O)(=O)c1ccc2[nH]cc(C(=O)N3CCN(c4ccccn4)CC3)c(=O)c2c1	101
CCCCNS(=O)(=O)c1ccc2[nH]c3nc(SCC(=O)Nc4nccs4)nnc3c2c1	99
CCC(=O)N1CCCN(S(=O)(=O)C(C)C)CC1	105
CCOc1cc(C2C(C#N)=C(N)Oc3n[nH]c(-c4cccc([N+](=O)[O-])c4)c32)ccc1O (configuration not stated)	105
CC(C)c1nn2c(S(=O)(=O)N3CCCCCC3)c(C(C)C)nc2s1	98
Cc1ccc(C2CCCCCN2S(C)(=O)=O)s1 (configuration not stated)	97
COC(=O)C1=CN(C2CC2)c2cc(N3CCN(C)CC3)c(F)cc2S1(=O)=O	95
COc1cc(-c2ccccc2)nc2ccc(NS(=O)(=O)c3ccc(NC(C)=O)cc3)cc12	106
COc1ccccc1Cn1c(=S)[nH]c2cc(C(=O)NCCc3ccc(OC)c(OC)c3)ccc2c1=O	104
Cc1ccc(S(=O)(=O)N2CCC[C@@H]2C(=O)NCCc2csc(C)n2)cc1	105
CCc1nc(SCC(=O)NCC2CCCO2)c2c(=O)n(C)c(=O)n(C)c2n1 (configuration not stated)	99
COc1ccc(CCNC(=O)c2cc3nc(-c4cccs4)cc(C(F)(F)F)n3n2)cc1OC	118
c1ccc(-c2nc(N3CCOCC3)c3oc4ccccc4c3n2)cc1	104
O=C(Nc1cccc(Br)c1)N1CCCN(c2nc3cc(F)ccc3n3cccc23)CC1	96
O=C(NN1C(=O)C2C3C=CC(C4CC34)C2C1=O)C1CC1(c1ccccc1)c1ccccc1 (configuration not stated)	116
COc1cc(-c2[nH]nc3c2C2(C(=O)N(CC(=O)O)c4ccccc42)C(C#N)=C(N)O3)cc(OC)c1OC (configuration not stated)	102
CCOc1ccccc1N/C(SCc1cccc([N+](=O)[O-])c1)=C(/C#N)C(=O)NCc1ccccc1	116
COc1ccc(C2/C(=C(\O)c3ccc(Br)cc3)C(=O)C(=O)N2CCCN2CCOCC2)cc1 (configuration not stated)	108
CCC(C)(C)C1CCc2oc3c(cc(NS(=O)(=O)c4ccccc4)c4ccccc43)c2C1 (configuration not stated)	120
COc1ccc2[nH]cc(CCNC(=O)c3cc(-c4ccc(NC(C)=O)cc4)nc4ccccc34)c2c1	107
Cc1ccc2c3c(c(N)c(=O)[nH]c13)-c1ccccc1C2=O	76*
CC(C)CCN(CCC(C)C)S(=O)(=O)c1cc2c(c([N+](=O)[O-])c1)-c1c(cc(S(=O)(=O)N(CCC(C)C)CCC(C)C)cc1[N+](=O)[O-])C2=NO	102
CCOC(=O)C1=NN(c2ccccc2)C(c2ccccc2)N1C(C)(C)C (configuration not stated)	106
OC(Cn1cnc(-c2ccccc2)c1-c1ccccc1)Cn1c2ccc(Br)cc2c2cc(Br)ccc21 (configuration not stated)	119
Cc1nc(CN2C(=O)COc3ccc(S(=O)(=O)NCCC(C)C)cc32)no1	107
CC1(C)Cc2nc3[nH]c(=S)n(Cc4ccccc4)c(=O)c3cc2CO1	112
COc1cccc(N2CCN(c3ccnc(SCC(=O)Nc4cc(C)cc(C)c4)n3)CC2)c1	103
O=C(CCc1nc(-c2ccc(N3CCCC3)cc2)no1)NCc1ccc2c(c1)OCO2	102
COC(=O)c1ccc2c(=O)n(CC3CCCO3)c(SCC(=O)NCCc3ccc(OC)c(OC)c3)nc2c1 (configuration not stated)	99
COc1ccc2c(c1)-c1c(ssc1=Nc1cc(Cl)cc(Cl)c1)C(C)(C)N2	108
O=C(NCc1ccccc1Cl)c1cccnc1SCc1ccccc1Cl	116
CCC(=O)Nc1nc(-c2cccs2)nc2c1c(=O)oc1ccccc12	119
O=C(NCCCO)C(=O)Nc1ccc(Cl)c(C(F)(F)F)c1	111
COc1cc(OC)c(OC)cc1/C=C1/C(=O)N(c2cc(C)cc(C)c2)C(c2cccc([N+](=O)[O-])c2)S1(=O)=O (configuration not stated)	122
O=C(Nc1ccc(N2CC=C(c3ccccc3)CC2)c(C(=O)O)c1)c1ccc(Br)cc1	105
O=C(Cn1cnc2c(sc3ncccc32)c1=O)NCc1ccc2c(c1)OCO2	109
O=C(Nc1ccc(-c2noc(COc3ccc(Br)cc3)n2)cc1)c1ccco1	107
CSc1ccc(C2C(C#N)=C(N)OC(C)=C2C(C)=O)cc1 (configuration not stated)	112
O=c1/c(=C/c2cc3c(cc2Br)OCO3)sc2nc3cc(Br)cnc3n12	99
Cc1cc(Cl)ccc1-n1ncc2c(N3CC(C)OC(C)C3)ncnc21 (configuration not stated)	103

The listing continues:
SMILES	GIV-Gai inh
CCOc1ccc2c(c1)-c1c(ssc1=S)C(C)(C)N2C(=O)c1cccc([N+](=O)[O-])c1	105
N#CC1(C#N)[C@@H]2c3ccccc3C=CN2[C@@H](C(=O)C23CC4CC(CC(C4)C2)C3)[C@@H]1c1cccnc1	103
Cc1ccc(-c2ccc3nncn3n2)cc1S(=O)(=O)Nc1ccc(Oc2ccccc2)cc1	101
N#Cc1c(C(F)(F)F)cc(-c2ccccc2)nc1SCC(=O)Nc1ccc(C(N)=O)cc1	113
CCCS(=O)(=O)NC1CCCN(c2cc(N3CCCC3)ncn2)C1 (configuration not stated)	103
CC(C)(C)c1csc(-c2csc(S(=O)(=O)Nc3ccc(F)cc3)c2)n1	107
Cc1ccc(S(=O)(=O)n2c(SCc3ccccc3F)nc3ccccc32)cc1	103
CCCc1[nH]n(-c2ccc(F)cc2)c(=O)c1C=NCCN1CCN(C(C)=O)CC1	110
O=C1CSC(c2cccnc2)N1c1ccc(F)cc1 (configuration not stated)	103
O=C(Nc1nc2ccccc2s1)NC1CC(=O)N(c2ccc3c(c2)OCCO3)C1 (configuration not stated)	105
O=C(CCC(=O)N1CC(c2ccccc2)Oc2cccnc21)NCc1ccccc1 (configuration not stated)	106
Cc1ccc(-c2csc(Cc3nc(-c4ccc(F)cc4)no3)n2)c(C)c1	121
Cc1cc(NC(=O)c2cnccn2)ccc1-c1nc2ccccc2s1	104
CCc1nc(-c2csc(S(=O)(=O)N3CCC(C(=O)NC(C)CC)CC3)c2)no1 (configuration not stated)	105
O=C(Nc1ccccc1)N1CCCCCC1c1cccs1 (configuration not stated)	100

GIV-Gai inh, what is marked active above
SMILES	GIV-Gai inh
Cc1ccc2c3c(c(N)c(=O)[nH]c13)-c1ccccc1C2=O	76*

(continued)
SMILES	GIV-Gai inh
Cc1cc(C2CCCN2C(=O)NCC(C)C)on1 (configuration not stated)	107
Cc1cc(-c2csc(S(=O)(=O)NCCCN3CCN(C)CC3)c2)on1	107
CC(=O)Nc1cccc(N2CC(C(=O)Nc3cccc(Br)c3)CC2=O)c1 (configuration not stated)	100
N#CC(c1ccc(O)cc1)N1CCCCC1 (configuration not stated)	100
CC(=O)N1CCCc2cc(S(=O)(=O)N3CCCC(C(=O)NCCN4CCc5ccccc5C4)C3)ccc21 (configuration not stated)	106
CC(C)c1ccc(C2Nc3cccc4cccc(c34)C(=O)CS2)cc1 (configuration not stated)	104
Cc1ccc(C)c(N=C(NOCc2ccc(Cl)cc2)c2nonc2N)c1	104
CC(=O)OCC1OC(n2ncc(=O)n(Cc3ccccc3)c2=O)C(OC(C)=O)C1OC(C)=O (configuration not stated)	106
COc1cccc(NC(=O)Cn2c(=O)nc(NCc3ccccc3)c3ccccc32)c1	98
CCS(=O)(=O)N1CCCN(C2=NS(=O)(=O)C(c3ccccc3)=C2C)CC1	102
CC1(C)CC(=O)C2=C(C1)OC1=C(C(=O)CC(C)(C)C1)C2c1ccc([N+](=O)[O-])cc1	110
CCOC(=O)C1=C(N)OC2=C(C(=O)CC(C)(C)C2)C1c1ccc(Cl)c(Cl)c1 (configuration not stated)	112
CC(C)c1csc(-c2csc(S(=O)(=O)NCc3ccc(Cl)cc3)c2)n1	99
Cc1ccc(-c2nc3sc(CCNC(=O)c4cc(C)cc(C)c4)c(C)n3n2)cc1	99
Cc1nc(-c2cc(S(=O)(=O)Nc3ccc(F)cc3)c(C)s2)sc1C	106

Four compounds out of the list above, ordered by the number in GIV-Gai inh, high to low:
canonical_smiles	GIV-Gai inh
N#Cc1c(C(F)(F)F)cc(-c2ccccc2)nc1SCC(=O)Nc1ccc(C(N)=O)cc1	113
CC1CC(C)CN(S(=O)(=O)c2ccc(F)c(C(=O)Nc3c(F)cc(F)cc3Br)c2)C1 (configuration not stated)	108
CCOc1ccc2c(c1)-c1c(ssc1=S)C(C)(C)N2C(=O)c1cccc([N+](=O)[O-])c1	105
CC(C)c1nn2c(S(=O)(=O)N3CCCCCC3)c(C(C)C)nc2s1	98

Reformatted: two of the compounds above.
Cc1ccc(-c2nc3sc(CCNC(=O)c4cc(C)cc(C)c4)c(C)n3n2)cc1
- GIV-Gai inh: 99
CC(=O)N1CCCc2cc(S(=O)(=O)N3CCCC(C(=O)NCCN4CCc5ccccc5C4)C3)ccc21 (configuration not stated)
- GIV-Gai inh: 106

At a glance, 3 of the compounds above:
SMILES	GIV-Gai inh
CCOC(=O)C1=C(N)OC2=C(C(=O)CC(C)(C)C2)C1c1ccc(Cl)c(Cl)c1 (configuration not stated)	112
CC(C)c1csc(-c2csc(S(=O)(=O)NCc3ccc(Cl)cc3)c2)n1	99
Cc1ccc(-c2nc3sc(CCNC(=O)c4cc(C)cc(C)c4)c(C)n3n2)cc1	99

More entries
SMILES	GIV-Gai inh
Clc1cccc(CNc2cc(-n3ccnc3)ncn2)c1	113
O=c1n(Cc2ccccc2Cl)nc2c(S(=O)(=O)N3CCc4ccccc4C3)cccn12	108
CCOC(=O)CCSc1nc(N2CCOCC2)c2c(c1C#N)CC(C)(C)OC2	110
O=C(N/N=C/c1ccc(Sc2nnc(-c3ccccc3)n2-c2ccccc2)o1)c1ccccc1[N+](=O)[O-]	107
O=C(NCc1ccco1)c1nn2c(C(F)(F)F)cc(-c3ccc(Br)cc3)nc2c1Cl	112
Fc1ccc(C2CC(c3cccs3)=Nc3ccccc3S2)cc1 (configuration not stated)	111
CC(C)CNc1ncnc2c1cnn2C	99
O=c1[nH]c(SCc2ccc(F)cc2Cl)nc2c1CN(Cc1ccc(F)cc1)CC2	96
CC(=O)OCCN1C(=C/C=C/c2n(CCOC(C)=O)c3cc(Cl)c(Cl)cc3[n+]2CCOC(C)=O)N(CCOC(C)=O)c2cc(Cl)c(Cl)cc21	282
CC(C)Cn1c(=O)c(-c2ccc(C(=O)NCCC3=CCCCC3)cc2)nc2ccccc21	93
Cc1cccc(NC2=NC(=S)N(c3ccccc3Cl)C23CCCCC3)c1	107
CN(C)c1cccc(C(=O)NCc2nc3cccnc3n2Cc2ccccc2)c1	107
Cc1ccc(-c2csc(C(C#N)=C3CCC(c4ccccc4)CC3)n2)cc1 (configuration not stated)	107
COC(=O)c1ccccc1NC(=O)c1ccc(N2CC3CC(C2)c2cccc(=O)n2C3)c(NC(=O)c2ccc(F)cc2)c1 (configuration not stated)	102
CCCCCCC(C)OC(=O)c1ccc(-c2ccc(-c3ccc(C(=O)OC(C)CCCCCC)cc3)cc2)cc1 (configuration not stated)	115
Cc1sc2ncnc(SCC(=O)c3ccc(Br)cc3)c2c1C	106
CCOc1ccc(CN2CCCC2c2cc(C(C)C)on2)cc1 (configuration not stated)	107
Cc1c(Br)c(C(F)(F)F)nn1CC(=O)Nc1ccccc1C(F)(F)F	114
O=C(NCc1ccc(S(=O)(=O)N2CCCCC2)s1)C1CC1	103
CCOC(=O)c1[nH]c(C)c(CN(Cc2ccc(OC)cc2)C(=O)Nc2cccc(OC)c2)c1C	103
